# Compound activity as filed in PubChem.
# Vif A3G = inhibitors of Vif binding to APOBEC3G peptide, primary screen, biochemical, TR-FRET, GST-Vif 1-94, biotin-A3G peptide, dose response retest (AID 1117319); TR-FRET GST-Vif / biotin-A3G peptide binding; higher % means a stronger effect; test concentration not given here; strong numbers were not always called active; inhibition, %, or IC50 in µM where a hit was titrated; 0.57% of 260,000 active;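 active means above the screen mean plus three standard deviations and confirmed in dose response; inconclusive means results disagree or hit not tested in dose response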;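 further: Vif residues 1-94 fused to GST binding biotinylated APOBEC3G peptide 110-148; 0% = full assay without inhibitor and 100% = GST in place of GST-Vif; retest series ran down from 100 µM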
# AF4-AF9 inh = MLL-AF4/AF9 protein interaction inhibition; P42568; inhibition, % at 10 µM; AID 651704; AlphaScreen, biotin-AF4 peptide binding to FLAG-AF9; 0.47% of 350,000 active;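 active means every replicate reaching a set inhibition limit, whatever the replicate mean, cut at about 25% in these data; inconclusive means mean inhibition reaches that limit but some replicates miss it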;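 further: 0% = plate neutral control median and 100% = total signal loss; the record names both 10 and 1 µM as test concentration; the first replicate is given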
# Ecoli growth = blocks Escherichia coli growth; OD600, 23 h; hits give low values; OD600 absorbance (no concentration beside the values); 0.21% of 330,000 active;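 active means OD600 absorbance below the run mean of sample wells minus 3.6 SD, in any replicate, cut at about 0.56 in these data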;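 further: stock transfer was 300 nL into about 60 µL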
# FGF22 binding = binders of recombinant human FGF22 by thermal shift; Q9HCT0; SYPRO orange fluorescence; percent of sucrose octasulfate shift, DMSO zero; calls only at 9.99 µM; 1.5% of 340,000 active; AID 651658;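 active means melting point raised past a set limit in the mean and every replicate; inconclusive means no clear call; three in four hits are not shown here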
# Target sequence (Q9HCT0 whole entry, looked up): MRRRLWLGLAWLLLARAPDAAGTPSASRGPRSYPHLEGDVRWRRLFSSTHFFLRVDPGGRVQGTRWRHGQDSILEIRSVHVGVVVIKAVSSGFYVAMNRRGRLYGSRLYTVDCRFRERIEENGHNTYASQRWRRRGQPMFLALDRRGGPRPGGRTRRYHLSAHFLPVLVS
# HNF4A DNA FP = change in binding of human HNF4 alpha to DNA; P41235; HNF4a-FITC DNA binding, fluorescence polarization, 1 h; activity change, % at 10 µM; 0.3% of 360,000 active; AID 1224865; in the data active means activity change above about 30%, passing the limit was not always enough;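 further: controls were the assay level and a saturating level of protein; the project sought stronger binding though the title names inhibitors; some compounds called inactive have numbers as strong as hits; positive values seem to mean higher polarization but the record does not say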
# Target sequence (P41235 whole entry, looked up): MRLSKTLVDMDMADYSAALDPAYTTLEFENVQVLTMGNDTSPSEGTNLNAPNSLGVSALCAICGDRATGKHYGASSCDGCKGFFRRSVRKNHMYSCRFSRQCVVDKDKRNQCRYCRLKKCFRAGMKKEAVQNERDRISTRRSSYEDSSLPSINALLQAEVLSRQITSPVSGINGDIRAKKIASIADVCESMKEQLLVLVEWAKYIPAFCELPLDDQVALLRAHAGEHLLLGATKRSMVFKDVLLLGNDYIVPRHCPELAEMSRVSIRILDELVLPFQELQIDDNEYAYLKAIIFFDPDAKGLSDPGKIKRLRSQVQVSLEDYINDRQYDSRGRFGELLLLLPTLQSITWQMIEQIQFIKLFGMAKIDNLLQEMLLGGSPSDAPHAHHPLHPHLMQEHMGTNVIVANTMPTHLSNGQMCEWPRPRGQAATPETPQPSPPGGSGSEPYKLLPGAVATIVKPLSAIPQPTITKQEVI
# UCH37 inh = human UCH37 deubiquitinating enzyme inhibition. purified proteasome/UCH37, Ub-AMC cleavage fluorescence. Q9Y5K5. AID 588478. inhibition, % (no concentration beside the values). 0.33% of 330,000 active;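 active means mean of two replicates above 20%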;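 further: 0% = compound-free wells with enzyme and 100% = wells lacking proteasome; stock transfer was 100 nL into about 20 µL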
# Target sequence (Q9Y5K5 whole entry, looked up): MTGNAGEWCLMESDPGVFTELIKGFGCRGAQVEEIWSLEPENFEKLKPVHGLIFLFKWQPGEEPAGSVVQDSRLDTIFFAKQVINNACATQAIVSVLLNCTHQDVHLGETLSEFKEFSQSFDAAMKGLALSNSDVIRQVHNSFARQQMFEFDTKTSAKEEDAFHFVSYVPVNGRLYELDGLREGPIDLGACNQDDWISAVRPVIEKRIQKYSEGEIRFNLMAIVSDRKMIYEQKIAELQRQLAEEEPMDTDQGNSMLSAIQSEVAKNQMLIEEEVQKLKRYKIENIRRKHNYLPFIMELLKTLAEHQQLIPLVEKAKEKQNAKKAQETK
#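 Material: human UCH37 enzyme supplied as purified proteasome complex. Measure: % inhibition of Ub-AMC cleavage fluorescence. Medium: pH 7.4 Tris-HCl (50 mM) with ovalbumin, ATP-MgCl2, DTT. Times: 30 min preincubation with enzyme, 25 min cleavage at room temperature. Detection: AMC fluorescence intensity at 355/460 nm.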
# RanGTP-Imp inh = inhibitors of RanGTP-importin-beta interaction, primary screen, biochemical, FRET, CFP-Ran, YFP-importin-beta, homogeneous. 1.1% of 300,000 active. inhibition, % (test concentration not listed). AID 2216. cell-free CFP-Ran/YFP-importin-beta FRET ratio;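 active means most replicates above 15%; inconclusive means exactly half above 15%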;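 further: 0% = DMSO wells and 100% = Ran loaded with GDP instead of GTP; wells of about 40 µL received 100 nL stock; the first replicate is given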
# An asterisk follows results filed as active; i = inactive; u = inconclusive; x = no result given; & = joins results of further samples. These rows are one share of the data; count on the stated rates, not on these rows.
SMILES	Vif A3G	AF4-AF9 inh	Ecoli growth	FGF22 binding	HNF4A DNA FP	UCH37 inh	RanGTP-Imp inh
CC(C(=O)N1CCCCC1)N1CCN(S(=O)(=O)c2ccc(Cl)cc2)CC1 (stereo not given)	-6%	1.8	0.71	i	1.4	2.5	x
O=S1(=O)CC(NCc2ccccc2)C(Nc2ccc(Cl)cc2)C1 (stereo not given)	16%	x	0.73	x	-1.1	4.2	0.7
Cc1ccc(NS(=O)(=O)c2ccc(C(=O)N3CCOCC3)cc2)cc1	7%	-1.5	0.65	x	-1.6	0.7	4.1
O=C(Cn1nnc(-c2ccc(Cl)cc2)n1)NCc1ccco1	5%	-0.1	0.7	i	0.6	1.9	u
CCN(CC)S(=O)(=O)c1ccc(NC2c3ncccc3C(=O)N2Cc2ccccc2)cc1 (stereo not given)	-4%&-5%	x	0.72	x	-2.1	3.1	3.9
O=C(/C=C/c1ccc([N+](=O)[O-])cc1)NCCN1C(=O)S/C(=C\c2ccc(F)cc2)C1=O	5%	-1.8	0.71	i	-0.1	6.5	-1.9
COc1ccc(-c2cc(-c3nnc(-c4ccncc4)o3)c3ccccc3n2)cc1	-7%	x	0.7	x	1.1	-63	3.1
C#CCCCCCCC#CCN(C)C	-3%	3.0	x	i	3.4	x	-2.2
CC(=O)OCc1cc2cccc(C)c2[nH]c1=O	0%	x	0.76	x	2.4	-3.1	-1.8
Cn1c2ccccc2c2ncn(Cc3ccc(F)cc3)c(=O)c21	6%	-5.1	0.65	i	0.4	-6.3	0.0
O=c1oc2ccccc2n1CSc1nc2ccccc2s1	-2%	x	0.72	x	-0.8	2.3	-0.1
CCOC(=O)Nc1ccc2c(c1)N(C(=O)OC)c1ccccc1CC2	2%	x	0.73	x	-0.1	3.4	-0.6
COc1ccc(C(C)NC(=O)c2cccc([N+](=O)[O-])c2)cc1OC (stereo not given)	u	1.0	0.69	i	-1.4	-0.3	0.1
N=C1/C(=C\c2ccc(OC(=O)c3ccccc3)cc2)C(=O)N=C2SC(N3CCOCC3)=NN12	x	10.0	0.72	i	6.3	8.3	-1.5
COc1ccc(C(=O)N2CCN(c3cccc(Cl)c3)CC2)cc1S(=O)(=O)NC1CC1	x	0.8	0.67	i	1.2	4.5	x
COC(=O)c1cccnc1NC(=S)NNC(=O)c1ccncc1	u	x	0.7	x	0.8	7.3	4.8
CC(c1ccccc1)C1CC(=O)N(Cc2ccco2)C1=O (stereo not given)	1%	x	0.73	x	4.2	2.8	-2.3
CC1(C)Cc2c(cnn2-c2ccc(F)cc2)C(NC(=O)C(C)(C)O)C1 (stereo not given)	x	-2.1	0.66	i	-1.6	1.8	-4.0
O=C(NCCOc1ccccc1Cl)c1cc(F)c(F)cc1Cl	4%	0.4	0.69	i	1.8	3.5	-6.5
O=S(=O)(NCc1nnc2ccccn12)c1ccc(F)cc1	-2%	0.6	0.73	i	-1.7	4.9	x
CCn1ncc(/C=C/C(=O)Nc2c(C)nn(CC)c2C)c1C	21%	x	0.73	x	1.3	3.2	1.1
CCN(CC)C1CCN(c2nc3nonc3nc2NCCOC)C1 (stereo not given)	10%	2.6	0.74	i	3.4	7.7	1.6
COc1ccc(S(=O)(=O)NC(=O)C2(C)CCN2C(=O)c2c(C)noc2C)cc1 (stereo not given)	x	-3.5	x	i	-1.5	x	x
CC(OC(=O)[C@H](C)N=C1NS(=O)(=O)c2ccccc21)C(=O)Nc1ccc(F)c(F)c1F (stereo not given in full)	x	-6.2	x	i	5.7	x	x
CCNc1nc(NCC)n2c(SCC(=O)Nc3ccc(F)cc3)nnc2n1	24%	-1.2	0.65	i	-3.4	2.1	-1.1
COCC(C)n1c(C)cc(C(=O)COC(=O)c2c(NC(C)=O)sc(C)c2C)c1C (stereo not given)	-5%	x	0.72	x	37*	2.2	3.5
CC(=O)c1ccc(-c2cnc3c(NC=O)cc(-c4cccc(NS(C)(=O)=O)c4)cn23)cc1	x	-0.8	x	i	1.4	x	x
O=C(COC(=O)c1ccc([N+](=O)[O-])o1)Nc1ccc(F)cc1	x	0.2	0.58	i	2.4	14	x
O=C(CCN1C(=O)C2C3C=CC(C3)C2C1=O)Nc1ccc2c(c1)OCO2 (stereo not given)	29%	x	0.73	x	-0.3	2.7	x
Cc1cccc(-c2nc(C#N)c(NCC3CCCO3)o2)c1 (stereo not given)	4%	-3.6	0.66	i	1.3	-156	1.5
O=C(NC(Nc1ncc(S(=O)(=O)c2ccc([N+](=O)[O-])cc2)s1)(C(F)(F)F)C(F)(F)F)c1ccc(Cl)cc1	3%	x	x	x	-3.4	x	0.1
CCCCC(=O)N(C)c1c(C)nc2ccc(C(=O)NCc3ccccc3OC)cn12	x	6.9	x	i	-5.2	x	x
CC(c1ccccc1)N1CCn2c(nc3cc(NC(=O)c4cccs4)ccc32)C1 (stereo not given)	-2%	x	0.64	x	8.7	-12	u
CCOc1ccc(-n2c(C)cc(/C=N/NC(=O)C(N)=O)c2C)cc1	u	2.7	x	i	4.2	x	-3.4
C/C(=N\NC(=O)c1cc(-c2ccncc2)nc2ccccc12)c1ccc(N2CCOCC2)cc1	-7%	-3.0	x	i	0.8	x	1.2
Cn1c(N)c(C(=O)CSc2ncn[nH]2)c(=O)n(C)c1=O	10%	-3.0	0.67	i	7.1	1.2	3.3
Cc1ccccc1C(=O)N[C@H](C(=O)OCC(=O)NC1CC1)C(C)C	x	-3.9	0.72	i	1.2	3.4	x
Cc1cccn2c(=O)c3cc(C(=O)NCc4ccc(F)cc4)c(=N)n(CC4CCCO4)c3nc12 (stereo not given)	x	-2.4	0.71	i	4.5	i	185*
COc1cccc(C2NC(=O)NC(C)=C2C(=O)Nc2ccccc2C)c1 (stereo not given)	9%	x	0.75	x	x	-1.5	-2.2
O=C(CN1C(=O)NC2(CCCCC2)C1=O)Nc1ccc2[nH]c(=O)[nH]c2c1	12%	-0.3	0.7	i	-4.4	0.5	x
O=C(Nc1nnc(-c2ccc(F)cc2)s1)Nc1ccccc1F	1%	0.3	0.65	i	-0.5	3.4	-2.4
N#Cc1cccc(NC(=O)CCNC(=O)c2ccccc2Cl)c1	-8%	0.1	0.67	i	0.4	-0.2	4.1
Cc1nnc(-c2ccc(Oc3ccc(Cl)cc3)c([N+](=O)[O-])c2)o1	22%	-21	0.65	i	-0.7	2.6	0.6
CC(C)c1nnc(NC(=O)c2cccs2)s1	-4%	-6.9	0.73	i	-0.5	3.8	0.3
Cc1noc(C)c1S(=O)(=O)N1CCC(C(=O)NC2CCN(Cc3ccccc3)CC2)CC1	28%	x	0.68	x	1.2	4.5	u

# Four entries from above, with values under each structure.
# Below each SMILES – Vif A3G	AF4-AF9 inh	Ecoli growth	FGF22 binding	HNF4A DNA FP	UCH37 inh	RanGTP-Imp inh
- Cc1ccccc1C(=O)N[C@H](C(=O)OCC(=O)NC1CC1)C(C)C
 : x	-3.9	0.72	i	1.2	3.4	x
- O=C(Nc1nnc(-c2ccc(F)cc2)s1)Nc1ccccc1F
 : 1%	0.3	0.65	i	-0.5	3.4	-2.4
- Cn1c(N)c(C(=O)CSc2ncn[nH]2)c(=O)n(C)c1=O
 : 10%	-3.0	0.67	i	7.1	1.2	3.3
- CCOc1ccc(-n2c(C)cc(/C=N/NC(=O)C(N)=O)c2C)cc1
 : u	2.7	x	i	4.2	x	-3.4

# (continued)
SMILES	Vif A3G	AF4-AF9 inh	Ecoli growth	FGF22 binding	HNF4A DNA FP	UCH37 inh	RanGTP-Imp inh
Cc1cccc(C)c1NC(=O)C(c1ccccc1OC(F)(F)F)N1CCN(C/C=C/c2ccccc2)CC1 (stereo not given)	x	8.2	x	i	-0.6	x	x
Cn1cc(C(=O)c2ccc(Cl)cc2Cl)cc1C(=O)N/N=C(\N)COc1ccc(Cl)cc1Cl	20%	x	x	x	-0.8	x	1.7
O=C(c1ccc(NS(=O)(=O)c2ccccc2)cc1)N1CCN(Cc2ccc3c(c2)OCO3)CC1	-6%&-2%	x	0.74	x	-2.0	1.7	2.1
COc1cc(OC)c2c(-c3ccccc3)cc(=O)oc2c1C(CC(=O)N1CCN(c2ccccc2)CC1)c1ccc(N(C)C)cc1 (stereo not given)	-10%	-8.2	0.69	i	1.1	3.9	-3.3
O=C(c1cnn2c(C(F)(F)F)cc(-c3ccc(F)cc3)nc12)N1CCc2ccccc2C1	-13%	6.2	0.72	i	3.0	-11	1.2
Fc1cccc(Cl)c1-c1nnc2ccc3ccccc3n12	u	0.2	0.7	i	-1.5	-0.9	-4.7
c1ccc(SCc2nc(-c3ccncc3)no2)cc1	-3%	-7.2	0.68	i	-2.8	0.0	-6.0
COc1ccc(C(C)NC(=O)C2C(=O)NC3(C)CC2c2ccccc2O3)cc1 (stereo not given)	79%	x	0.68	x	-1.6	-0.4	-3.1
Cc1cc(=O)n(-c2ccccc2Cl)[nH]1	15%	-2.9	0.68	i	4.1	4.7	-0.4
CS(=O)(=O)N1N=C(c2ccc(Br)cc2)CC1c1cccs1 (stereo not given)	1%	x	0.7	x	-0.4	4.8	0.6
CCS(=O)c1ccccc1C(=O)OC(C)C(=O)Nc1ccc(S(=O)(=O)N2CCCC2)cc1 (stereo not given)	9%	4.6	0.69	i	-1.6	3.0	12
CCOc1ccc(N(C)C(=O)CCc2nnc3ccc(N4CCCC4)nn23)cc1	x	-1.5	0.7	i	1.4	1.2	-0.5
Cc1nn(-c2ccccc2)c2[nH]c(C(F)(F)F)cc(=O)c12	-9%	x	0.66	x	4.0	-10	-1.9
CCCCn1c(N)c(N(CCC(C)C)C(=O)CCN2C(=O)C3CC=CCC3C2=O)c(=O)[nH]c1=O (stereo not given)	-1%	2.0	0.63	i	-1.4	-2.8	0.9
COc1ccc(-n2c(=O)c(CCC(=O)N(C)Cc3cccs3)nc3ccccc32)cc1	-6%	1.9	0.63	x	2.3	2.3	x
O=C(CN1C(=O)/C(=C/c2ccccc2)SC1=S)Nc1cccnc1	-13%	0.1	x	i	-2.9	4.4	0.8
Cc1n[nH]c(=O)c2c(NC(=O)CSc3nc4ccccc4c(=O)n3-c3ccc(OC(F)F)cc3)oc(C)c12	5%	1.6	0.69	i	-0.2	1.4	-2.4
NS(=O)(=O)c1ccc2nc(NC(=O)c3ccncc3)sc2c1	x	1.3	0.65	i	0.3	12	-1.0
CC[n+]1ccccc1/C=C1\Sc2ccc(C)cc2N1C	x	-1.0	0.64	i	1.4	12	2.5
Clc1ccc(Cl)c(OCCCCN2CCNCC2)c1	x	12	0.65	i	-3.5	2.5	-1.4
COc1ccc(NC(=O)CSc2nc3c(c(=O)n2-c2ccc(F)cc2)SCC3)cc1	-1%	2.6	0.76	i	-1.9	10	4.0
CC1(C)OC(=O)C2=C(C[C@@H](C3CCCCC3)O[C@H]2c2ccccc2)O1	x	2.1	x	i	-2.4	x	x
O=[N+]([O-])c1ccc(CN2CCN(c3ccc(F)cc3)CC2)o1	x	-0.7	0.72	i	1.3	6.5	2.5
O=C(CNS(=O)(=O)c1c(Cl)cccc1Cl)OCc1csc(-c2ccccc2)n1	20%	-11	0.73	i	0.9	6.4	2.5
Cc1cccc(NC(=O)CSc2cccc3cccnc23)c1	x	2.7	0.67	i	2.2	-51	-3.5
COCCn1c(SCC(=O)N2CCCCC2)nc2ccccc2c1=O	-4%	-74	0.73	i	-1.3	4.2	-3.3
